# Cruzain noTriton – qHTS Assay for Promiscuous and Specific Inhibitors of Cruzain (without detergent); Potency, µM, without a hit: max response, negative = inhibition, actives largely listed as inhibitors; AID 1476, 2009; 2.3% of 200,000 active; Cruzipain (Trypanosoma cruzi), P25779; purified cruzain, Z-FR-AMC fluorescence, no detergent; active means well fitted curve in the direction sought with a large enough effect; inconclusive means small, poorly fitted or top-dose-only effect, or another doubt; inactive means no such curve, though single readings can be large; an effect the other way counts as inactive or inconclusive;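 further: plate controls were enzyme without inhibitor for no effect and buffer without enzyme for full effect; nearly all actives have a fitted effect of over 40% in size; top concentration of the series not given in the record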
# Target sequence (P25779 123-467 limits assumed): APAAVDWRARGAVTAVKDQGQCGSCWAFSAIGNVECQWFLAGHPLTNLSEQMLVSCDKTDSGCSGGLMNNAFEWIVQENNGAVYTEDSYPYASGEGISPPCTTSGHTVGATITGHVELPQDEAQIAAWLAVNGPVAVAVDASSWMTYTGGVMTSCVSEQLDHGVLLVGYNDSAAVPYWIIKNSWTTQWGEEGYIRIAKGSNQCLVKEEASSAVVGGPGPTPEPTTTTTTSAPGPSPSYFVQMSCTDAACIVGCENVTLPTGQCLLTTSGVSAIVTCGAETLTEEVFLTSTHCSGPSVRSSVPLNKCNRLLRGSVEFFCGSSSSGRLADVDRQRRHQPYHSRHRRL
#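 Purified cruzain at 1.5 nM, pre-incubated 15 min with compound at room temperature in 100 mM sodium acetate pH 5.5, 5 mM DTT, 0.00005% Triton X-100. Reaction started with 2 uM Z-FR-AMC; AMC fluorescence increase over 60 s gives rate.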
# StopGo reporter – High Throughput Screening for Foot and Mouth Disease Virus Antivirals; human cells with a luciferase reporter of 2A StopGo recoding; control for the full effect not named in the record; Potency, µM (top dose mostly 57.9 µM), for inactives: at the highest dose signal change, negative = less light; 1.2% of 410,000 active; active = well fitted falling curve with a large enough effect; inconclusive = small, poorly fitted or top-dose-only effect; inactive = no such curve, though single readings can be large or run the other way; tested in HEK293T cells; further: on the % scale 0 is the no-effect control and ±100 the full control effect; nearly all actives have a fitted effect of over 45% in size; luciferase light after 4 h
# NS1 function inh – qHTS Assay for Inhibitors of Influenza NS1 Protein Function | S. cerevisiae slowed by influenza A NS1, growth recovery by OD600 | Potency, µM (titrated, usually from 46.1 µM), for the others: at the highest dose activity, positive = more growth | 0.4% of 270,000 active | AID 2326, 2010; further: actives are rising curves; nearly all actives have a fitted effect of over 50% in size
#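 In this qHTS, NS1 from influenza A is expressed in budding yeast, where it slows growth. Cells are switched from glucose to 2% galactose medium (pH 6.0, -URA), treated with compound, and growth recovery is read at OD600.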
# Cruzain Triton – qHTS Assay for Promiscuous and Specific Inhibitors of Cruzain (with detergent); purified cruzain, Z-FR-AMC fluorescence, 0.01% Triton; Potency, µM, without a hit: max response, negative = inhibition, actives largely listed as inhibitors; 0.43% of 200,000 active; active means well fitted curve in the direction sought with a large enough effect; inconclusive means small, poorly fitted or top-dose-only effect, or another doubt; inactive means no such curve, though single readings can be large; an effect the other way counts as inactive or inconclusive;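 further: plate controls were neutral wells for no effect and buffer without enzyme for full effect; nearly all actives have a fitted effect of over 40% in size; top concentration of the series not given in the record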
#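 In this qHTS format, compounds are incubated with 1.5 nM cruzain for 15 min at room temperature before 2 uM Z-FR-AMC is added. Release of AMC is followed at 360/450 nm, and progress is taken as the 60 s fluorescence difference.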
# RE007 growth inh – qHTS Assay for Inhibitors of the HIV-1 protein Vpr; S. pombe RE007 Vpr strain, BacTiter-Glo ATP luminescence, 24 h; control for the full effect not named in the record; Potency, µM (titrated, usually from 92.2 µM), inactives show at the highest dose activity change, negative = less growth; 0.21% of 360,000 active; active = well fitted falling curve with a large enough effect; inconclusive = small, poorly fitted or top-dose-only effect; inactive = no such curve, though single readings can be large or run the other way;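 further: on the % scale 0 is the no-effect control and ±100 the full control effect; nearly all actives have a fitted effect of over 50% in size; the assay follows cell death caused by Vpr and the record does not say whether a fall means rescue or toxicity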
#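 Fission yeast RE007 carrying one integrated HIV-1 vpr copy, seeded at OD 0.01 in PMG+AL medium with 23 nL pinned compound. Grown 24 h at 30 degrees; viability read by BacTiter-Glo luminescence after 5 min.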
# LASV entry inh – qHTS for Inhibitors of binding or entry into cells for Lassa Virus. Lassa virus pseudotype entry inhibition, cell reporter; control for the full effect not named in the record. Potency, µM (titrated, usually from 37.9 µM), for the others: at the top dose activity change, negative = inhibition, actives largely listed as inhibitors. 1.2% of 300,000 active. AID 540256, 2011; active means well fitted inhibition curve with a large enough effect; inconclusive means small, poorly fitted or top-dose-only effect, or effect the other way; inactive means flat fitted curve, though single readings scatter; tested in HEK293 cells; further: on the % scale 0 is the no-effect control and ±100 the full control effect; nearly all actives have a fitted effect of over 50% in size; luciferase read-out
# MARV entry inh – qHTS for inhibitors of binding or entry into cells for Marburg Virus. Marburg virus pseudotyped entry inhibition, cell reporter; control for the full effect not named in the record; about a third of the inactives were read at about 46 µM. 1.8% of 300,000 active. Potency, µM (top dose mostly 37.8 µM), for the others: at the highest dose activity change, negative = inhibition, usual class: inhibitors; active = well fitted inhibition curve with a large enough effect; inconclusive = small, poorly fitted or top-dose-only effect, or effect the other way; inactive = flat fitted curve, though single readings scatter; tested in HEK293 cells; about a fifth of its hits are not listed in these tables; further: on the % scale 0 is the no-effect control and ±100 the full control effect; luciferase read-out
# SARS PLP yeast – qHTS of Yeast-based Assay for SARS-CoV PLP; AID 485353, 2010; S. cerevisiae expressing SARS-CoV PLpro, growth rescue; control for the full effect not named in the record; Potency, µM (top dose mostly 32.9 µM), for inactives: top-dose activity, positive = growth rescue; 0.19% of 330,000 active; further: 0% is about no effect; nearly all actives have a fitted effect of over 55% in size; growth read by luminescence after 48 h
# Starred values were filed as active, the others as inactive; ? = inconclusive; / = no result given; & = joins results of further samples; [ ] = dose if it differs, or a comment. Unless noted, the call rests on the fitted dose curve; in most records, active means well fitted rising curve with a large enough effect; inconclusive means small, poorly fitted or top-dose-only effect; inactive means no such curve, though single readings can be large or run the other way. Potency means the concentration at half of the fitted maximal effect.
SMILES,Cruzain noTriton,StopGo reporter,NS1 function inh,Cruzain Triton,RE007 growth inh,LASV entry inh,MARV entry inh,SARS PLP yeast
CC(C)(C)OC(=O)N1CCC[C@H]1c1nnc(SCc2ccccc2)o1,/,-11%,5%,/,28%,?,-6%[14.2 µM],1%
O=C(Nc1cc(C(=O)Nc2ccc(S(=O)(=O)O)cc2S(=O)(=O)O)cc(C(=O)Nc2ccc(S(=O)(=O)O)cc2S(=O)(=O)O)c1)Nc1cc(C(=O)Nc2ccc(S(=O)(=O)O)cc2S(=O)(=O)O)cc(C(=O)Nc2ccc(S(=O)(=O)O)cc2S(=O)(=O)O)c1,-7%&-10%,-4%,0%,-22%&-3.2%,/,/,13µM*,/
COc1ccc(NC(=O)C2CCCN2C(=O)NC2CCCCC2)cc1 (stereo not given),/,4%,14%,/,1%,?,?,8%
CCCn1c(C(O)c2ccc(OCC)cc2)nc2ccccc21 (stereo not given),2%,-23%,-73%,9.7%,3%,/,/,3%
CCOC(=O)CCS(=O)(=O)c1ccc(-c2ccc(S(=O)(=O)CCC(=O)OCC)cc2)cc1,-4%,/,3%,2.5%,-9%,-3%,-1%,5%
O=C(O)C1CCN(C(=O)COc2ccc3c4c(c(=O)oc3c2)CCCC4)CC1,/,-10%,18%,/,4%,/,/,-6%
O=C(N/N=C/c1ccccn1)c1cccc(NC(=O)c2ccccc2Cl)c1,/,9%,0%,/,7%,/,/,1%
CCCC[C@H]1COCCS(=O)(=O)N1Cc1cccc([N+](=O)[O-])c1,/,-1%,4%,/,-11%,/,/,-4%
CC(=O)Nc1ccc(NC(=O)C2CCCN2/C=C/C(=O)C(F)(F)F)cc1 (stereo not given),/,-20%,/,/,13%,2%,-3%[46.1 µM],1%
CC(C)(CNS(=O)(=O)c1ccc2ccccc2c1)N1CCOCC1,/,48%[activator],/,/,?,6%,8%,-1%
CCN(CC)c1ccc(/C=C2\C(=O)NC(=S)N(C)C2=O)o1,/,4%,2%,/,-16%,24%[46.1 µM],?,1%
Nc1ccc(S(=O)(=O)Nc2cnc3c(Cl)cccc3n2)cc1,/,52%[activator],/,/,-11%,14%,-2%,/
CN(CC=CCN(C)P(=S)(N1CC1)N1CC1)P(=S)(N1CC1)N1CC1,/,-24%,/,/,-5%,-28%,?,/
COc1ccc(N2CCN(Cc3cc(=O)c(OCC(=O)NC4CCCC4)co3)CC2)cc1,/,-26%,/,/,1%,17%,?,4%
CC1=CC(=O)C=C(C)C1=NOS(=O)(=O)c1ccccc1,-10%,14µM*,-194%,-1.2%,?,10µM*,?,-30%
CC(=O)c1cccc(NC(=O)C2CCN(S(=O)(=O)c3ccc4[nH]c(=O)ccc4c3)CC2)c1,-3%,-3%,/,-3.7%,/,15%[46.1 µM],/,/
NNc1nc2sc3c(c2c(=O)n1C1CCCCC1)CCN(Cc1ccccc1)C3,/,6%,3%,/,-4%,-15%,-1%,-1%
NC(=O)C1C(c2ccccc2)=C1c1ccccc1,-10%,-24%,-10%,4.1%,4%,13%,12%,6%
Cc1ccc(CNC(=O)[C@@H](NC(=O)Cc2ccccc2)C(C)C)cc1,/,8%,2%,/,4%,?,?,-5%
Cc1ccn2c(CNCC3OCCc4ccccc43)c(C(=O)N3CCCCCC3)nc2c1 (stereo not given),/,20%,-6%,/,-13%,?,?,1%
CCCCOc1ccc(C(=O)Nc2ccc3c(c2)CCCN3S(=O)(=O)c2ccc(C)cc2)cc1,?,-25%,/,0.1%,/,?,/,/
CCNC(=S)Nc1cc(-c2ccc(Cl)cc2)[nH]n1,/,28%,-57%,/,1%,-25%,-22%[46.1 µM],-6%
Cc1ccc(/C=N/NC(=O)c2ccc(OC3CCCC3)cc2)o1,/,14%,10%,/,24%,/,/,0%
Cc1ccccc1OCC(=O)OCC(=O)NCCNC(=O)COC(=O)COc1ccccc1C,/,-10%,/,/,4%,-3%,29%,-2%
Cc1ccc(/C=C/C(=O)NC(=S)N2CCN(c3ccc(F)cc3)CC2)cc1,/,-3%,2%,/,0%,5%[46.1 µM],1%&1%[46.1 µM],0%
Cc1ccc(NC(=O)c2c3c(nc4ccccc24)CCC3)cc1,/,-6%,/,/,-4%,-4%,-11%[46.1 µM],-6%
Clc1ccc2c(c1)-c1nnc(Br)n1-c1ccccc1S2,-30%,?,-10%,-5.4%,0%,?,?,-11%
COCCNC(=S)N/N=C/c1ccc(-c2ccc([N+](=O)[O-])cc2)o1,/,-5%,-3%,/,0%,/,/,-1%
CCCCCN(C(=O)NC(=O)Nc1ccccc1OC)S(C)(=O)=O,0%,15%,-3%,-1.2%,8%,?,-5%,2%
CC(C)N1C(=O)/C(=C/C=C/c2ccco2)C(=O)N(Cc2ccco2)C1=O,3%,18µM*,12%,-13%,-18%,?,4µM*,1%
COc1ccccc1CC(=O)NCCCc1ccccc1,/,2%,-2%,/,0%,/,/,3%
CCSC1=NCCN1C(=O)C(C)(C)Oc1ccc(Cl)cc1,/,-30%,/,/,?,-21%,?,-2%
O=c1c2ccccc2c(/C=N/n2cnnc2)c(O)n1-c1ccccc1,-3%,-22%,?,-1.0%,-9%,-4%,15%,0%
CCN(CC)S(=O)(=O)c1ccc(N2CCCCC2)c(NC(=O)/C=C/c2ccc(OC)c(OC)c2)c1,10%,-2%,?,-7.6%,3%,-35%,-27%,-5%
CC1CN(CC(O)COc2ccc(C(=O)c3ccccc3)cc2)CC(C)O1 (stereo not given),13%,-12%,-7%,1.1%,2%,?,-4%,7%
CCN(CC)S(=O)(=O)c1cc(C(=O)NC2CCCCC2)ccc1C,-11%,45%[activator],-14%,-9.1%,5%,?,?,8%
CCn1nc(NC(C)=O)c2cc3ccc(C)cc3nc21,/,11%,-6%,/,1%,-27%[46.1 µM],?,-1%
NC(=O)c1ccc(NC(=O)C#Cc2ccccc2)cc1,/,-6%,-3%,/,-2%,2.2µM*,4.5µM*,0%
CCN(CC(=O)Nc1ccc(OC)cc1)CC(=O)Nc1ccc2c(c1)OCO2,/,-2%,/,/,-12%,-5%,-8%,-4%
COc1ccc2c(c1)CC/C(=C\c1ccc(OC)c(Cn3cccn3)c1)C2=O,-4%,?,-51%,-4.7%,-1%,-12%,?,-22%
COc1cccc(CN2C(=O)N(c3ccc(C)cc3)C(=O)C2CC(=O)Nc2cc(OC)cc(OC)c2)c1 (stereo not given),26%,-23%,/,-6.0%,/,?,/,/
CCC(=O)c1cccc2c1N=CC1=C(CC(C)(C)CC1=O)N2,-12%,/,-3%,0.9%,-1%,?,14%,0%
CC(C)CC(=O)NCc1nc2cccnc2n1Cc1ccccc1,0%,-8%,/,1.2%,/,?,/,/
Cc1cccc(N2C(=O)C(CC(=O)Nc3ccc(Cl)cc3)N(Cc3ccco3)C2=O)c1 (stereo not given),-5%,20%,/,-8.3%,/,?,/,/
O=C(CCNC(=O)c1ccc(Br)cc1)Nc1nccs1,/,24%,/,/,-9%,19%,-1%,0%
COc1cc(C(=O)NC2=C(C#N)CCC2)cc(OC)c1OC,/,12%,-3%,/,7%,/,/,0%
FC(F)(F)c1ccnc(NCc2ccco2)n1,/,7%,4%,/,5%,/,/,3%
COc1ccccc1CNC(=O)COC(=O)C1=COCCO1,-1%,-6%,-2%,5.1%,3%,-4%,21%,-3%
CCOC(=O)C1CCCN(C(=O)COc2ccccc2F)C1 (stereo not given),/,-2%,-4%,/,9%,3%,12%[46.1 µM],-3%
CCOc1ccc(NC2=NC(C)(C)N=C(N)N2)cc1,-14%,-8%,-4%,2.1%,-29%,10%,5%,6%
CC1=CCC(C(=O)N/N=C/c2cccs2)C(c2ccc(F)cc2)C1 (stereo not given),?,-16%,-88%,-4.5%,25%,?,-12%,-34%
COc1ccc(C(CNC(=O)c2cccnc2SC)N2CCOCC2)cc1 (stereo not given),6%,-16%,3%,1.0%,7%,-4%,12%,3%
CCC(=O)c1cc2c(cc1NC(=O)C(C)C)OCCO2,-8%,-10%,2%,-0.4%,-1%,12%,0%,6%
CC(=O)c1c(C)oc2ccc(N(C(=O)c3ccncc3)S(=O)(=O)c3ccc(F)cc3C)cc12,?,-20%,/,4.5%,/,-8%[46.1 µM],?,/
Clc1ccc(-c2cn3cc(Cl)ccc3n2)cc1,/,-48%,-3%,/,-20%,/,/,1%
O=C(Nc1ccc(Br)cc1Cl)c1ccc2c(=O)n3c(nc2c1)CCC3,/,-10%,/,/,-16%,3%[46.1 µM],-15%,1%
O=c1cc(-c2ccc(Br)cc2)[nH][nH]1,/,2%,17%,/,-7%,-4%,-20%[46.1 µM],3%
O=C(O)c1cc(NN=Nc2ccc(Br)cc2)cc([N+](=O)[O-])c1,/,1%,9%,/,6%,/,/,0%
Cc1ccc(C)c(NC(=O)C2CCN(c3cc(C)nc4c(-c5ccc(Cl)cc5)c(C)nn34)CC2)c1,-8%,-14%,/,0.9%,/,?,15%[46.1 µM],/
CC(=O)c1cccc(NC(=O)Cc2cccs2)c1,-16%,25%,-9%,-4.9%,-7%,4%,14%,-1%

# The listing continues:
SMILES,Cruzain noTriton,StopGo reporter,NS1 function inh,Cruzain Triton,RE007 growth inh,LASV entry inh,MARV entry inh,SARS PLP yeast
CCn1c(C(O)c2ccc3c(c2)OCO3)nc2ccccc21 (stereo not given),-11%,0%,-5%,1.2%,-2%,4%,-4%[46.1 µM],1%
CC(=O)Nc1ccc(S(=O)(=O)NC(=O)C23CC4CC(CC(C4)C2)C3)cc1,-4%,4%,1%,0.1%,9%,3%,0%[46.1 µM],9%
CCCCC(=O)NCc1nc2cccnc2n1Cc1ccc(OC)cc1,-3%,?,/,-3.9%,/,-2%[46.1 µM],/,/
Cc1ccc(NC(=O)Cn2c(=O)n(Cc3ccco3)c(=O)c3ccc(C(=O)NC4CCCC4)cc32)c(C)c1,-1%,-35%,/,-0.6%,/,?,1%[46.1 µM],/
Cc1nn(C)c(NC(=O)c2ccc(Cl)cc2)c1Cl,/,-20%,2%,/,5%,/,0%,-2%
